V. cholerae QS – Vibrio cholerae quorum sensing activators, luminescence (AID 686977) | 9,400 tested, under 10 active | V. cholerae quorum sensing reporter, luminescence, 6 h; higher luminescence means a stronger effect; most inactives read 0 | one-dose luminescence at 50 µM unless noted; EC50 in µM for titrated hits;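 active = light above mean plus 3 SD and confirmed in a dose series; inconclusive = above that limit without a clear retest; inactive = below it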;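 note: raw light counts without normalisation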
* = called active by the depositor; u = inconclusive; [ ] = dose if it differs, or a comment.

no. | Structure | V. cholerae QS
1 | C=CCn1c(SCC(=O)c2ccc(CNC(C)=O)o2)nc2scc(C3CC3)c2c1=O | 0
2 | Oc1ccc2ccccc2c1CN1CCN(c2ccccc2F)CC1 | 0
3 | Cc1ccc2c(c1)N(CCC(=O)NCc1cccs1)C(=O)C(C)O2 (stereo not drawn) | 0
4 | COCCNc1nc(=S)[nH]c2cc(OC)c(OC)cc12 | 0
5 | Cc1nn(C)cc1NC(=O)CCSc1nc(-c2ccco2)cc(C(F)(F)F)n1 | 40
6 | CCOC(=O)C1CCN(S(=O)(=O)c2ccc3[nH]c(=O)oc3c2)CC1 | 0
7 | COc1ccc(Nc2nnc(SCc3cc([N+](=O)[O-])cc4c3OCOC4)s2)cc1 | 40
8 | CCCC1(C(=O)O)NC(c2ccccc2O)C2C(=O)N(c3cccc(Cl)c3)C(=O)C21 (stereo not drawn) | 0
9 | COc1ccccc1CN(Cc1cc2c(C)ccc(C)c2[nH]c1=O)Cc1nnnn1Cc1ccco1 | 0
10 | Cc1cc2cc(CNC(=O)Nc3cccc(Cl)c3)ccc2n1C | 0
11 | Oc1c(Br)cc(Br)cc1/C=N/c1nc2c(s1)CCCC2 | 0
12 | COC(=O)c1sc(N)c(C(=O)OC)c1CSc1nnnn1C | 0
13 | COCCN(C(=O)CNC(=O)c1ccco1)C(C(=O)NC1CCCCC1)c1cccc(OC)c1 (stereo not drawn) | 40
14 | CCOC(=O)C1CCN(C(=O)Nc2ccc(Cl)cc2)CC1 | 0
15 | CSc1cccc(NC(=O)COc2cccc3ccccc23)c1 | u
16 | COc1ccc(NC(=O)/C(C#N)=C\c2cc(C)n(-c3ccc(Oc4ccc([N+](=O)[O-])cn4)cc3)c2C)cc1 | 0
17 | Cc1nc(CN2CCCC2=NC#N)n(-c2ccccc2)n1 | 0
18 | COc1ccc(OC)c(Nc2ncnc3c2cnn3-c2ccccc2)c1 | 280
19 | Fc1ccc([C@@H]2CCNC[C@H]2COc2ccc3c(c2)OCO3)cc1 | 0[10 µg/mL]
20 | Cc1nn(CCCNC(=O)C2CCCO2)cc1Br (stereo not drawn) | 0
21 | COc1ccc(CCNC(=O)CC2Nc3ccccc3NC2=O)cc1OC (stereo not drawn) | 280
22 | COc1ccc2nc(NC(=O)C3CCCN(S(=O)(=O)c4c(C)noc4C)C3)sc2c1 (stereo not drawn) | 40
23 | COc1cc(/C=N/N=C(/N)c2nonc2N)cc(Br)c1OCc1cccc(C)c1 | 0
24 | Cc1ccc2c(c1C)NC(C)CC2C (stereo not drawn) | 0
25 | O=C1CC(c2nc3ccccc3[nH]2)CN1Cc1ccccc1 (stereo not drawn) | 40
26 | COC(=O)c1cccc(NS(=O)(=O)c2ccc(OC)c(OC)c2)c1C | 40
27 | Cc1cc(C)c(NC(=O)c2ccoc2C)c(C)c1 | 0
28 | O=C(Cn1cc2c(n1)CCCC2)N1CCCc2ccccc21 | 0
29 | O=C(CSc1nnc(C2CC2)n1-c1ccccc1)NCCc1ccc(F)cc1 | 0
30 | Cc1cccc(OCCNC(=O)c2ncn[nH]2)c1 | 0
31 | Cc1cc(C)nc(N2CCC(C(=O)NCC3CCCCC3)CC2)n1 | 0
32 | Cc1nc(SCCC(=O)O)c2ccccc2n1 | 240
33 | OCCCc1nc2n(n1)C(c1cccs1)C=C(c1ccccc1)N2 (stereo not drawn) | 0
34 | CCCCOC(=O)C(C)Oc1ccc(=O)n(-c2ccccc2)n1 (stereo not drawn) | 0
35 | O=S(=O)(Nc1ccc(N2CCOCC2)nn1)c1ccccc1 | 40
36 | CN(Cc1cccs1)C(=O)CCc1ccc(S(=O)(=O)N2CCOCC2)cc1 | 0
37 | N#Cc1ccccc1OCC(=O)NC(N)=O | 0
38 | O=C(NCc1ccco1)c1cnccn1 | 0
39 | Cn1cccc1Cc1nnc(SCC(=O)N2CCCCCC2)n1CCc1ccccc1 | 40
40 | CCOC(=O)c1cccc(NC(=O)C2CCCN2S(=O)(=O)c2cccc3cccnc23)c1 (stereo not drawn) | 0
41 | COc1cc(C2Nc3ccc4ncccc4c3C3=C2C(=O)CC(C)(C)C3)cc(OC)c1O (stereo not drawn) | 0
42 | Cc1ccccc1NC(=O)C1CCCN(S(=O)(=O)c2cccc3cccnc23)C1 (stereo not drawn) | 0
43 | COc1ccc(-n2c(Cc3cccn3C)nnc2SCC(=O)NCCc2ccccc2)cc1 | 280
44 | COc1ccc(CCN2CCC(Nc3nc4ccccc4n3Cc3ccc(F)cc3)CC2)cc1 | 0[10 µg/mL]
45 | COc1ccc(C(=O)NCCn2cc(SCC(=O)NCc3ccco3)c3ccccc32)cc1 | 0
46 | Cc1ccc(N2CCN(C(=O)c3ccccc3F)CC2)c(C)c1 | 0
47 | c1ccc(N2CCN(Cc3cn4cccnc4n3)CC2)cc1 | 0
48 | O=C(NC1CCN(C(=S)NCc2ccco2)CC1)c1ccc(F)cc1 | 280
49 | O=C(Cc1cccs1)NCc1ccc(F)cc1 | 0
50 | O=C(Nc1ccc(F)cc1)C1CCCN(S(=O)(=O)c2cccc3cccnc23)C1 (stereo not drawn) | 0
51 | CN(C)c1ccc2c(O)cc(=O)n(C)c2c1 | 0
52 | Clc1ccccc1CSc1nc2ccncc2[nH]1 | 0
53 | CO[C@H]1/C=C/O[C@@]2(C)Oc3c(C)c(O)c4c(O)c(c(/C=N/N5CCN(C)CC5)c(O)c4c3C2=O)NC(=O)/C(C)=C\C=C\[C@H](C)[C@H](O)[C@@H](C)[C@@H](O)[C@@H](C)[C@H](OC(C)=O)[C@@H]1C | 0[10 µg/mL]
54 | NCCC(O)C(=O)N[C@@H]1C[C@H](N)[C@@H](OC2O[C@H](CN)[C@@H](O)[C@H](O)[C@H]2N)[C@H](OC2O[C@H](CO)C(O)[C@H]2O)[C@H]1O (stereo partly drawn) | 200[10 µg/mL]
55 | COc1ccc(S(=O)(=O)N2CCN(c3ccc4nnc(-c5ccc(F)cc5)n4n3)CC2)cc1 | 40
56 | CC(C)(C)Nc1nc(Oc2ccc(=O)n(-c3ccccc3)n2)nc(N2CCOCC2)n1 | 0
57 | Cc1cc(C)n2nc(C(=O)Nc3nnc(C4CC4)s3)nc2n1 | 0
58 | Cn1c(NC(=O)c2cc(Br)ccc2Cl)cc(=O)n(C)c1=O | 0
59 | CCCCCC(=O)N1CCN(c2ccc(C(C)=O)cc2F)CC1 | 0
60 | COc1ccc(CCC2(C)NC(=O)NC2=O)cc1 (stereo not drawn) | 0

Later entries.
no. | Structure | V. cholerae QS
61 | O=C(O)CCCNS(=O)(=O)c1cccc2nsnc12 | 40
62 | Cc1nc2nc3c(cn2n1)C(=O)CCC3 | 0
63 | O=C(NCc1ccc2c(c1)OCO2)Oc1ccccc1 | 0
64 | O=C(C1CCCN(S(=O)(=O)c2cccc3cccnc23)C1)N1CCN(c2ccccc2F)CC1 (stereo not drawn) | 40
65 | CCC(C)N(NC(C)=O)c1nc(Cl)nc(NC(C)(C)C)n1 (stereo not drawn) | 0
66 | O=C(OCn1nnc2ccccc2c1=O)c1ccco1 | 0
67 | C/C(=N\Nc1nnc(-c2ccccc2)c(-c2ccccc2)n1)c1cccc([N+](=O)[O-])c1 | 0
68 | O=C(Cn1cc2c(n1)CCCC2)Nc1ccccc1Br | 40
69 | COc1cccc(NC(=O)COc2ccccc2C(N)=O)c1 | 40
70 | Nc1nnc(CC(=O)N2CCCCC2)s1 | 0
71 | O=C1c2ccccc2C(Nc2ccc(S(=O)(=O)N3CCOCC3)cc2)N1c1cccnc1 (stereo not drawn) | 200
72 | CSCCC1NC(=O)N(CC(=O)Nc2cccc3ccccc23)C1=O (stereo not drawn) | 40

Another view of some results above:
49) O=C(Cc1cccs1)NCc1ccc(F)cc1
  V. cholerae QS: 0
50) O=C(Nc1ccc(F)cc1)C1CCCN(S(=O)(=O)c2cccc3cccnc23)C1 (stereo not drawn)
  V. cholerae QS: 0
51) CN(C)c1ccc2c(O)cc(=O)n(C)c2c1
  V. cholerae QS: 0
52) Clc1ccccc1CSc1nc2ccncc2[nH]1
  V. cholerae QS: 0

The list goes on:
no. | Structure | V. cholerae QS
73 | O=C(Nc1ncc(Cc2ccc(SC(F)F)cc2)s1)c1ccccc1 | 0
74 | COC(=O)c1ccccc1NC(=O)c1ccccc1N(C)S(C)(=O)=O | 0
75 | CCC(c1nnnn1Cc1ccco1)N1CCN(c2cc(Cl)ccc2C)CC1 (stereo not drawn) | 0
76 | Cc1ccc(NC(=O)CC2Oc3ccccc3NC2=O)c(C)c1 (stereo not drawn) | 160
77 | CCOc1ccc(-n2c(Cc3cc(=O)[nH]c(=O)[nH]3)nnc2SC(C)C(=O)OC)cc1 (stereo not drawn) | 0
78 | CCOC(=O)/C(N=Nc1c(Br)cc(Br)cc1Br)=C(\C)O | 40
79 | Cc1[nH]c2ccccc2c(=O)c1CN(C)Cc1ccccc1 | 0
80 | CCCCNc1ncnc2c1cnn2-c1ccc(C)cc1C | 0
81 | N#CC1=C(SCC(=O)c2ccc(Cl)cc2)NC2=C(C(=O)CCC2)C1c1ccco1 (stereo not drawn) | 0
82 | CC1CC(C)(C)CC2(C1)NC(=O)N(CC(=O)NCC(c1ccco1)N1CCCCC1)C2=O (stereo not drawn) | 0
83 | COc1ccccc1NC(=O)C1=C(C)NC(=O)NC1c1ccc(C)cc1 (stereo not drawn) | 80
84 | CC1(C)S[C@@H]2[C@H](NC(=O)C3(N)CCCCC3)C(=O)N2[C@H]1C(=O)O | u
85 | CC1=C(CC(=O)O)c2cc(F)ccc2/C1=C\c1ccc(S(C)=O)cc1 (stereo not drawn) | 40[10 µg/mL]
86 | COC(=O)C1=C(C)NC(C)=C(C(=O)OC)C1c1ccccc1[N+](=O)[O-] | 0[10 µg/mL]
87 | CCn1c(CSc2nc3ccccc3s2)nnc1SCC(=O)c1ccc(O)cc1O | 40
88 | COc1ccc(-c2cc(C(F)(F)F)n3nc(C(=O)N4CCOCC4)nc3n2)cc1 | 40
89 | O=C1OCCC1Sc1nc(-c2ccccc2)cs1 (stereo not drawn) | 0
90 | O=C(c1ccco1)N1CCN(c2ncnc3scc(-c4ccccc4)c23)CC1 | u
91 | NC(=O)CSc1nnc(C2CC2)n1-c1ccccc1 | 0
92 | O=c1cc(-c2ccc(O)c(O)c2)oc2cc(O)cc(O)c12 | 240[10 µg/mL]
93 | Cc1ccc(NC(=O)CS(=O)(=O)c2c[nH]c3ccccc23)c(C)c1 | 40
94 | CC(Sc1nnc(N)s1)c1ccccc1Cl (stereo not drawn) | 40
95 | Nn1cc(-c2ccccc2)nc1SCC(=O)N1CCN(S(=O)(=O)c2ccc3ccccc3c2)CC1 | 40
96 | O=C(CSc1ccccn1)c1ccc2c(c1)OCO2 | 0
97 | CCOc1cc(CNc2ccc3cn[nH]c3c2)ccc1OC | 0
98 | CCOC(=O)c1cnn(-c2ccccn2)c1N | 40
99 | CC(NC(=O)c1ccccc1Br)c1ccc2c(c1)CCCC2 (stereo not drawn) | 40
100 | Cc1[nH]n(-c2ccccc2)c(=O)c1/C=N/Nc1nncc(-c2ccccc2)n1 | 0
101 | COCCn1c(CN(C)Cc2ccccc2)nc2c1c(=O)n(C)c(=O)n2C | 40
102 | CN(CCCNC(=O)C1CCCN(S(=O)(=O)c2cnc[nH]2)C1)c1ccccc1 (stereo not drawn) | 40
103 | Cc1ccc(CN2CCNC(=O)C2CC(=O)O)cc1 (stereo not drawn) | 0
104 | COCCNc1ncnc2nc[nH]c12 | 0
105 | CSc1ncccc1C(=O)OCC(=O)NC(N)=O | 40
106 | Cc1csc(NC(=O)Cc2nn(C)c(=O)c3ccccc23)n1 | 0
107 | CCOc1ccc(-n2c(=O)[nH]cc(C(=O)N3CCc4ccccc43)c2=O)cc1 | 40
108 | CCOC(=O)N1CCC(NC(=O)Cn2cc3c(n2)CCCC3)CC1 | 40

Another view of some results above:
(104) COCCNc1ncnc2nc[nH]c12
  V. cholerae QS: 0
(105) CSc1ncccc1C(=O)OCC(=O)NC(N)=O
  V. cholerae QS: 40
(106) Cc1csc(NC(=O)Cc2nn(C)c(=O)c3ccccc23)n1
  V. cholerae QS: 0
(107) CCOc1ccc(-n2c(=O)[nH]cc(C(=O)N3CCc4ccccc43)c2=O)cc1
  V. cholerae QS: 40

(more compounds)
no. | Structure | V. cholerae QS
109 | N/C(=N\OC(=O)Oc1ccccc1)c1ccc(Br)cc1 | u
110 | Cc1cc(C)n2nc(SCC(=O)N(C)C)nc2n1 | 0
111 | CCOc1ccc(-n2nnnc2SCC(=O)c2ccccc2)cc1 | 0
112 | CCC(C(=O)Nc1ncn[nH]1)(C(F)(F)F)C(F)(F)F | 40
113 | Cc1ccc(Cl)cc1N1CCN(C(=O)C2CCCN(S(=O)(=O)c3cnc[nH]3)C2)CC1 (stereo not drawn) | 0
114 | Cc1cc(C)cc(NC(=O)Nc2ccc3c(c2)N(C)C(=O)CS3)c1 | 0
115 | O=[N+]([O-])c1ccc(N/N=C/c2c[nH]c3ccccc23)c(S(=O)(=O)Nc2ccc(Cl)cc2)c1 | 40
116 | CCC(Sc1nc2c(cnn2-c2ccc(Cl)cc2)c(=O)[nH]1)C(=O)OC (stereo not drawn) | 0
117 | COc1cccc(-n2c(Cc3cc(=O)[nH]c(=O)[nH]3)nnc2SCC(=O)Nc2ccccc2)c1 | 0
118 | O=C(c1ccc(NC2=NC3CS(=O)(=O)CC3S2)cc1)N1CCc2ccccc2C1 (stereo not drawn) | 40
119 | Cc1ccc2nc(SCC(=O)N(CC(C)C)c3c(N)n(CC(C)C)c(=O)[nH]c3=O)[nH]c2c1 | 40
120 | O=C(COC(=O)C1CC(=O)N(c2ccccc2)C1)c1ccccc1 (stereo not drawn) | 0
121 | COC(=O)c1ccc(Cc2ccccc2)o1 | 0
122 | CCOc1ccc(CCNC(=O)c2cc3ccccn3n2)cc1OCC | 40
123 | COCc1nnc(NC(=O)C(C)C)s1 | 0
124 | O=C(O/N=C\c1ccc(N2CCCCC2)c([N+](=O)[O-])c1)c1c(F)cccc1F | 0
125 | COCCn1c(Cc2ccccc2)nnc1SCC(=O)NC(C)(C)C | 0
126 | Cc1ccc(-n2c(SCC(=O)Nc3cc(C)on3)nc3c(c2=O)SC(C)C3)cc1 (stereo not drawn) | 0
127 | CNC(=O)C(C)NS(=O)(=O)c1ccc(F)cc1 (stereo not drawn) | u

Source: PubChem BioAssay

These rows are one share of the data; count on the stated rates, not on these rows.
